Screening results from PubChem.
Ecoli growth – E. coli growth inhibition, primary screen, OD600; Escherichia coli growth, 23 h; active compounds read low; 0.21% of 330,000 active; OD600 absorbance (concentration not given with the values);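 active = OD600 absorbance below the run mean of sample wells minus 3.6 SD, in any replicate, cut at about 0.56 in these data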;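 also: stock transfer was 300 nL into about 60 µL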
FGF22 binding – binders of human FGF22 protein, primary screen, FGF22 synaptogenesis inhibitor project, biophysical, thermal shift, single point; recombinant FGF22 thermal shift, SYPRO orange fluorescence; percent of sucrose octasulfate shift, DMSO zero; 1.5% of 340,000 active; AID 651658, 2012; Fibroblast growth factor 22 (Homo sapiens), Q9HCT0; calls only at 9.99 µM;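 active = melting point raised past a set limit in the mean and every replicate; inconclusive = no clear call; three in four hits are not shown here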
Target sequence (Q9HCT0 whole entry, looked up): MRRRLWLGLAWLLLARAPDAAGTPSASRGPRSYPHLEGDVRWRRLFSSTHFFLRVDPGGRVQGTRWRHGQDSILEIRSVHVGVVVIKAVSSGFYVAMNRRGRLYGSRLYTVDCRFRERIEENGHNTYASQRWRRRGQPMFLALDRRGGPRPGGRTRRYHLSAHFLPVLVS
AF4-AF9 inh – inhibitors of AF4 peptide binding to AF9, primary screen, biochemical, AlphaScreen, biotin-AF4 peptide, FLAG-AF9, single point; Protein AF-9 (Homo sapiens), P42568; inhibition, % at 10 µM; AID 651704, 2012; 0.47% of 350,000 active;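 active = every replicate reaching a set inhibition limit, whatever the replicate mean, cut at about 25% in these data; inconclusive = mean inhibition reaches that limit but some replicates miss it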;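 also: 0% = plate neutral control median and 100% = total signal loss; the record names both 10 and 1 µM as test concentration; the first replicate is given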
Target sequence (P42568 whole entry, looked up): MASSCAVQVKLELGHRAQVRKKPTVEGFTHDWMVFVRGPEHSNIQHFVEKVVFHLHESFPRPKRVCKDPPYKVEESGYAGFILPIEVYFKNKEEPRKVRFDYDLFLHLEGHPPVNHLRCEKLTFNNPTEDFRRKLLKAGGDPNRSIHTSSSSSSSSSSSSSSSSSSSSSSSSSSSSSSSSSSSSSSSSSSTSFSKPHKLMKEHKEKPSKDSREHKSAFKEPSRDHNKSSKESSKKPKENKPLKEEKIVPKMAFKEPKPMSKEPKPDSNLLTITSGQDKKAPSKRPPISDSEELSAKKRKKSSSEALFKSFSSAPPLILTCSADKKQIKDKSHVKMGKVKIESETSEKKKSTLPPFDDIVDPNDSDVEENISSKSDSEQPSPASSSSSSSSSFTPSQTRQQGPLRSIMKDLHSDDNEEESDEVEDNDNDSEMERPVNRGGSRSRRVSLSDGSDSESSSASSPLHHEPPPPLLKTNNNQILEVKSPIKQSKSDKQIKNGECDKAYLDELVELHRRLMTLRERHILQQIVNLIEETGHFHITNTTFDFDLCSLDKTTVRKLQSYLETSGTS
Beta cell apopt – inhibitors of cytokine-induced beta cell apoptosis, primary screen, luminescence | INS-1E cytokine-induced death, ATP luminescence, 48 h; percent of positive-control rescue, neutral wells zero | protection from apoptosis, % (no concentration beside the values) | 0.8% of 300,000 active | AID 435005, 2010;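 active = all replicates at 75% or more, or half of them and the mean; inconclusive = half reach 75% but not the mean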;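 also: 0% = cytokine-treated negative control wells and 100% = positive control rescue; higher means more ATP so stronger rescue from cytokine killing; wells of about 40 µL received 100 nL stock; the first replicate is given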
T cruzi inh – inhibitors of intracellular T. cruzi growth, primary screen, luminescence, NIH3T3 host cells; T. cruzi beta-gal in NIH3T3, 90 h; inhibition, % (no concentration beside the values); 1.4% of 300,000 active; AID 1885, 2009;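 active = mean inhibition across valid replicates above about 55%, limit read from the data; inconclusive = mean below that limit but half or more replicates reach it; inactive = mean below it, under half of replicates reach it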;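 also: signal also drops with host cell toxicity which is not excluded here; 0% = plate median of DMSO wells and 100% = zero luminescence signal; higher percent means less beta-gal luminescence so fewer parasites; stock transfer was 50 nL into about 50 µL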
Bfl-1 A1 inh – caspase 3/7 activation in MEF A1-2A-BIM cells, primary screen, A1 inhibitor project, cell-based, luminescence, HTS; 0.066% of 330,000 active; caspase activation, % (concentration not given with the values); Caspase-Glo 3/7 luminescence, 3 h; percent of clofoctol response, vehicle zero; AID 2462, 2010;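 active = over half of replicate activation scores above 10%, or exactly half above 10 with the replicate mean above 10; inconclusive = replicate mean below 10 yet half the replicates above 10; inactive = over half of replicates below 10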;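 also: wells of about 30 µL received 50 nL stock; many hits fall short of the cut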
Ecoli rRNA inh – reduced GFP signal of wild-type E. coli, primary screen, bacterial rRNA inhibitor project, GFP/RFP fluorescence, OD600, single point. E. coli WT GFP vs humanized-ribosome RFP mutants, 24 h; active compounds read low; DMSO median 0, no signal -100. GFP signal change (wild-type ribosome), % (test concentration not listed). 1.6% of 350,000 active. AID 720706, 2013;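 active = significant combined selectivity score with lowered wild-type GFP, culture density cut under 30%, mutant RFP and density less affected; inactive = any of these conditions unmet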; also: one replicate is shown; some compounds called inactive have numbers as strong as hits
UCH37 DUB inh – inhibitors of human UCH37 deubiquitinase, primary screen, biochemical, Ub-AMC cleavage, fluorescence; Ubiquitin carboxyl-terminal hydrolase isozyme L5 (Homo sapiens), Q9Y5K5; purified proteasome/UCH37; inhibition, % (concentration not given with the values); 0.33% of 330,000 active; AID 588478, 2011;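 active = mean of two replicates above 20%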;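 also: 0% = compound-free wells with enzyme and 100% = wells lacking proteasome; stock transfer was 100 nL into about 20 µL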
Target sequence (Q9Y5K5 whole entry, looked up): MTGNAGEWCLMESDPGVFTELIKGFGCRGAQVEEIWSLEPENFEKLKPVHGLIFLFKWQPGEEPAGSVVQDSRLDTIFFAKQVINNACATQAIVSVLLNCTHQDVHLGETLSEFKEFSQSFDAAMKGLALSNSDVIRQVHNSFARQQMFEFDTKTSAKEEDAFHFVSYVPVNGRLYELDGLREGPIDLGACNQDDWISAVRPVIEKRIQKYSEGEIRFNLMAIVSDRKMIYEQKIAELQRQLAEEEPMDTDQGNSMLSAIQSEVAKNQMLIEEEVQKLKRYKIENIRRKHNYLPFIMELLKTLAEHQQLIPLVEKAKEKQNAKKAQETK
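Material: human UCH37 enzyme supplied as purified proteasome complex / Amount: 0.15 nM proteasome as dispensed / Buffer or medium: pH 7.4 Tris-HCl (50 mM) with ovalbumin, ATP-MgCl2, DTT / Times: preincubation 30 min, reaction 25 min, room temperature / Technique: AMC fluorescence from Ub-AMC cleavage, excitation 355 nm, emission 460 nm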
Ecoli rRNA inh OD600 – further read-out of Ecoli rRNA inh, marked with its call; OD600 change, %; measured here: OD600 growth;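 optical density of the mix in the first replicate; 0 = DMSO median and -100 = no signal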
Ecoli rRNA inh RFP – further read-out of Ecoli rRNA inh, marked with its call; RFP signal change, %; measured here: RFP humanized mutant strains;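 first replicate; 0 = DMSO median and -100 = no signal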
An asterisk follows results filed as active; i = inactive; u = inconclusive; x = no result given.

SMILES	Ecoli growth	FGF22 binding	AF4-AF9 inh	Beta cell apopt	T cruzi inh	Bfl-1 A1 inh	Ecoli rRNA inh	Ecoli rRNA inh OD600	Ecoli rRNA inh RFP	UCH37 DUB inh
Cc1ccccc1NC(=O)CC1C(=O)Nc2ccccc2N1CC(=O)N(C)C1CCS(=O)(=O)C1 (centres undefined)	0.63	i	2.9	x	x	x	3	11	0.1	-2.3
CC1CN(c2ccc([N+](=O)[O-])c(NCCOc3ccccc3)c2)CCN1 (centres undefined)	0.62	x	x	4	41	1.0	x	x	x	12
Cc1ccc(S(=O)(=O)N2CCCCC2)cc1C(=O)OC1CCCCC1=O (centres undefined)	0.67	i	-28	2	3	-0.1	1	-3	1.2	3.2
O=C(NCC1(c2ccccc2)CCCC1)c1ccco1	0.65	x	-2.3	-5	8	-0.1	-15	-25	-7.3	0.3
CCOC(=O)C1C(=O)NC(c2ccccc2)=NC1c1ccccc1 (centres undefined)	0.71	x	x	-3	-16	-0.3	x	x	x	3.3
CN1C(=O)C(/C(N)=N/NC(=O)c2ccccc2)C2CC1(C)Oc1ccccc12 (centres undefined)	0.74	i	-1.0	1	-13	-0.2	6	8	0.1	0.8
CN1CCN(CCCNC(=O)Nc2cccc3ccccc23)CC1	0.7	x	x	-2	11	0.6	x	x	x	x
Cc1c(NC(=O)CN2CCN(c3ccc([N+](=O)[O-])cc3)CC2)c(=O)n(-c2ccccc2)n1C	0.67	i	0.6	4	-4	0.3	5	-3	-0.7	14
COC(=O)c1ccccc1-n1cccc1C(=O)NP(=O)(N1CCOCC1)N1CCOCC1	0.65	i	0.2	-4	-10	-0.2	20	11	3.0	-0.2
C/C(=N\N=C(N)N)c1ccc(C)c(C)c1	x	i	-13	-2	9	0.3	3	4	-2.8	x
CC(=O)Nc1ccc(Oc2ccc(NC(C)=O)c(NC(C)=O)c2)cc1	0.69	i	-0.4	-2	0	-1.6	19	18	3.1	3.1
COc1ccc(NC(=O)c2oc3ccccc3c2NC(=O)C2CCCO2)cc1OC (centres undefined)	0.73	i	7.2	9	22	-0.1	-37*	10*	-5.4*	8.6
O=C(Nc1cc(S(=O)(=O)N2CCOCC2)ccc1N1CCCCC1)c1ccccc1	0.65	i	0.1	-6	x	0.0	-8	-3	-1.9	0.0
Cc1ccc(C)c(NC(=O)CCC(=O)N/N=C/c2cccnc2)c1	x	i	-10	2	x	-0.2	5	2	2.2	x
O=C(Nc1cccc(F)c1)/C(=C\c1ccco1)NC(=O)c1cccs1	0.73	x	x	-1	-13	-0.4	x	x	x	5.5
O=C1NCC(Nc2ccccc2)C(=O)N1 (centres undefined)	0.68	i	0.7	x	x	x	4	10	-10	2.2
CN(C)c1ccc(C=Nc2cnn(C)c2C(N)=O)cc1	0.74	x	x	-4	x	-1.1	x	x	x	3.2
CC(=O)NC12CC3CC(C1)CC(C(=O)Nc1ccc(C)c(S(=O)(=O)N4CCCCCC4)c1)(C3)C2	0.65	i	1.8	x	x	x	-7	-10	22	2.7
Cc1ccc(NS(=O)(=O)c2c(C)ccc3nsnc23)c([N+](=O)[O-])c1	0.68	i	-4.8	-6	-3	0.5	2	1	-0.5	3.5
O=C(NCc1ccccc1)C(=O)Nc1nc(-c2ccccc2)cs1	0.62	i	2.5	-2	-14	0.3	-3	-4	-0.1	-1.7
O=c1cc(C(F)F)oc2c1ccc1ccccc12	0.66	i	-3.5	-5	-8	0.5	-9	-1	-1.8	-59
CCOC(=O)c1[nH]c(C)c(C(=O)N2CCc3ccccc32)c1C	0.67	x	x	19	9	2.7	x	x	x	1.5
Cc1ccc(C)c(N2CCN(C(=O)c3cc4ccccn4n3)CC2)c1	0.73	x	x	-8	10	1.6	x	x	x	6.9
O=C(Cc1ccccc1)NCC(=O)N1CCCCC1	0.7	i	-1.2	x	-2	0.4	21	17	-0.6	0.1
Cn1c(SCC(=O)Nc2ccccc2Br)nnc1-c1cnccn1	0.68	i	1.9	-1	-9	1.0	6	5	-0.2	-2.4

The last two entries of the section above lead into the next:
SMILES	Ecoli growth	FGF22 binding	AF4-AF9 inh	Beta cell apopt	T cruzi inh	Bfl-1 A1 inh	Ecoli rRNA inh	Ecoli rRNA inh OD600	Ecoli rRNA inh RFP	UCH37 DUB inh
O=C(Cc1ccccc1)NCC(=O)N1CCCCC1	0.7	i	-1.2	x	-2	0.4	21	17	-0.6	0.1
Cn1c(SCC(=O)Nc2ccccc2Br)nnc1-c1cnccn1	0.68	i	1.9	-1	-9	1.0	6	5	-0.2	-2.4
CCOC(=O)c1ccc(Nc2nc(C(=O)OCC)nc3ccccc23)cc1	0.7	x	x	10	3	0.5	x	x	x	-7.3
CCOC(=O)C1CCN(c2nc(-c3ccc(Br)cc3)nc3ccccc23)CC1	0.72	i	-4.5	-2	16	-0.6	17	-6	0.3	-3.4
Cn1c(SCC(=O)NCCc2ccc(S(N)(=O)=O)cc2)nc2ccccc2c1=O	0.72	i	-0.3	-2	-10	0.2	-8	-5	1.3	0.3
CC(C)C(=O)Nc1ccc(C(=O)N2CCCCCC2)cc1	0.71	x	x	-7	-10	0.7	x	x	x	4.4
COc1ccc(OC)c(C2C(C(=O)c3ccccc3)=C(C)Nc3nc4ccccc4n32)c1 (centres undefined)	0.67	i	-1.6	x	69*	2.0	2	1	1.7	2.4
O=C(Nc1ccc2nccnc2c1)Nc1ccccc1Cl	0.66	i	-2.1	4	-11	-4.9	5	3	-2.0	-24
COc1ccc(Cl)c(OC)c1C(=O)NC(=O)Nc1c(F)cc(F)cc1F	x	i	1.0	2	-4	-0.5	3	10	1.5	x
CCC(=O)n1nc(-c2ccc(OC)cc2)nc1SC	0.67	x	x	2	-18	-2.0	x	x	x	-0.2
CC(C)(C)C(=O)NC1(C(F)(F)F)NC(=O)N(Cc2ccccc2)C1=O (centres undefined)	0.69	i	0.3	0	-13	0.3	x	x	x	4.2
O=C(CC(Cc1ccccc1)C(=O)O)Nc1ccccc1 (centres undefined)	0.64	i	-2.3	x	-11	-0.5	18	8	-1.0	0.3
N#Cc1c(-c2ccc(Cl)cc2)ccn2nc(CCC(=O)O)nc12	0.72	x	x	-9	-15	0.1	x	x	x	3.1
COc1ccc(-c2cc3nc4n(c(=O)c3s2)CCC4)cc1	0.7	i	-11	9	-14	-9.3	1	7	-1.4	i
Cc1ccc(OCCSc2nnc(C)c(=O)n2N)cc1	0.71	i	-2.4	-4	-5	-0.3	10	6	1.2	0.7
O=Cc1ccc(O)cc1O	0.7	i	-9.7	-5	u	-0.2	x	x	x	6.1
COc1ccccc1C(=O)NC(=S)Nc1ccc(NC(=O)c2cccs2)cc1	0.77	i	-3.0	2	18	0.1	8	3	-4.3	5.5
CCCn1c(NC(=O)CSCC(=O)Nc2cc(C)on2)nc2ccccc21	0.66	i	2.5	1	9	0.2	12	10	-0.2	0.4
COc1ccc(N(CC(=O)N2CCC(Cc3ccccc3)CC2)S(C)(=O)=O)cc1	0.72	i	0.5	-2	-3	0.8	-21*	-16*	1.3*	2.8
CC1(C)Cc2noc(N)c2C(C)(C)N1O	0.62	x	x	-7	-12	1.1	x	x	x	2.7
CCCOc1c(Br)cc(C(N)=O)cc1OCC	0.71	x	x	-8	10	0.9	x	x	x	-0.4
O=C(Cn1c(=O)cnc2ccccc21)N1CCN(S(=O)(=O)c2ccc(F)cc2)CC1	0.69	i	2.1	-10	1	0.7	2	6	-2.6	1.7
COc1cccc(N(Cc2nnc3n2CCCCC3)C(=O)Nc2ccccc2)c1	0.64	i	-1.3	-2	x	-0.7	14	3	0.3	2.1
CC1CCC(C(=O)NC(C(=O)NCc2cccnc2)C(C)C)CC1 (centres undefined)	0.72	x	x	-3	-17	0.0	x	x	x	4.7
O=C(CN1CCSCC1)c1c[nH]c2ccccc12	0.66	x	x	-3	-15	-0.5	x	x	x	0.3
COc1cccc(OC)c1C(=O)Nc1nnc(-c2cccs2)s1	0.71	i	-4.2	-1	4	0.7	25	20	4.4	-9.0
O=C(CCC(=O)OCC(F)(F)C(F)F)Nc1ccccc1F	0.69	i	-0.4	-4	5	-0.1	19	3	-1.7	3.3

Following part
SMILES	Ecoli growth	FGF22 binding	AF4-AF9 inh	Beta cell apopt	T cruzi inh	Bfl-1 A1 inh	Ecoli rRNA inh	Ecoli rRNA inh OD600	Ecoli rRNA inh RFP	UCH37 DUB inh
N#Cc1ccc(NC(=O)Cn2cnc(S(=O)(=O)N3CCCC3)c2)cc1	0.65	x	1.5	-9	-20	0.6	3	4	1.5	2.4
CCOC(=O)CCNC(=O)N1CCCC(C(=O)c2cccc(OC(C)C)c2)C1 (centres undefined)	0.66	i	-2.1	-2	-5	-0.4	0	11	2.0	0.6
O=C(CSc1cccc2cccnc12)Nc1cc(C(=O)O)cc(C(=O)O)c1	0.68	i	3.9	9	1	-0.1	10	10	-1.0	-81
O=S(=O)(NCc1csc(-c2cccs2)n1)c1cccs1	0.69	i	1.9	-3	9	0.7	-18	-6	1.7	-1.7
CCC(=O)c1cn(CCOc2ccccc2OC)c2ccccc12	0.6	i	-2.3	4	2	-0.2	-3	1	-3.2	3.6
O=C(c1ccccc1)N1CCN(CC(O)COc2cccc3ccccc23)CC1 (centres undefined)	0.69	i	5.0	-2	-8	0.0	-3	-3	3.8	1.8
COc1ccc(NC2CCCN(C(=O)c3cccc(N4CCNC4=O)c3)C2)cc1 (centres undefined)	0.68	i	2.4	-4	-6	1.2	4	9	-0.2	2.1
CC1CCc2c(sc(NC(=O)COC(=O)c3ccc(NC(=O)CC#N)cc3)c2C#N)C1 (centres undefined)	0.72	i	0.0	5	-9	0.8	-2	-7	-0.9	-0.7
N#Cc1cc(-c2ccccc2)cnc1Sc1ccccc1	0.65	x	x	1	24	-0.1	x	x	x	-0.3
Cc1cccc2sc(N3CCN(C(=O)c4cccs4)CC3)nc12	0.67	i	-8.8	x	-7	0.3	-22	-35	-6.7	1.2
CC(/C=C/c1ccco1)=N\NC(=O)c1cccc(Cl)c1	x	i	5.5	4	-7	0.5	12	5	13	x
O=C(CCC(=O)c1cccs1)Nc1nnc(C2CC2)s1	0.63	x	x	-7	-4	1.8	x	x	x	0.2
ONC(=Nc1ccccc1)c1ccccc1Cl	0.71	x	x	-2	-30	-0.1	x	x	x	1.9
OCCC1CN(Cc2cn[nH]c2C2CCCCC2)CCN1Cc1ccccc1 (centres undefined)	0.71	i	1.8	-4	-1	-0.5	13	3	-4.6	-2.2
CCOCCCNC(=S)N1CCC(C(=O)c2ccc3c(c2)OCCO3)CC1	0.66	i	-0.3	0	8	-0.3	-11	-11	-3.2	3.7
Clc1ccc(-c2nnc(NC3=NCCCCC3)o2)cc1	0.71	x	x	-4	10	-7.3	x	x	x	-1.1

A portion of the library; count on the stated rates, not on these rows.
